Bioassay records: PubChem, ICCB-Longwood Screening Facility, Harvard Medical School
Polio RdRp inh – poliovirus RNA polymerase inhibition. poliovirus polymerase elongation, fluorescence polarization; hits give low values. % elongation, % (compound at 16.7 µg/mL). 0.66% of 150,000 active. AID 588519; in the data active means % elongation below about 90%; further: some results filed as inactive read as strong as hits
Target sequence (P03300 1749-2209 limits assumed): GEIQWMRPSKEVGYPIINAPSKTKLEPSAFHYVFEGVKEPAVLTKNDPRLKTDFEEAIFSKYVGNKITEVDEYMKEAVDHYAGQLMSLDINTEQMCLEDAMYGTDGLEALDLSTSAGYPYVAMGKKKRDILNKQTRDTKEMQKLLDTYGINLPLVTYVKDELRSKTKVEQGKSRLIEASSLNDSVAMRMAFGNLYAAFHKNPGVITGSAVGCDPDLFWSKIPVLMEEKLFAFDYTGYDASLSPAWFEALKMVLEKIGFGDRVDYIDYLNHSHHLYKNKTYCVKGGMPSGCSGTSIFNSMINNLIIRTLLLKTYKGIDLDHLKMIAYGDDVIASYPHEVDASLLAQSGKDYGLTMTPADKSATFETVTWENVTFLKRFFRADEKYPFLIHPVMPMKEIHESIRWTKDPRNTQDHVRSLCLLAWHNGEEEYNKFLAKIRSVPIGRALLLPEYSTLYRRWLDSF
Polio RdRp inh intensity – recorded beside Polio RdRp inh, whose call it bears; % elongation; measured here: total intensity read-out; formula for this scale not given here;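 total fluorescence in place of polarization; lower means less elongation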
* = called active by the depositor. Only part of the results is shown (hit frequency here may not be typical).

Start of the listing, in advance:
SMILES	Polio RdRp inh	Polio RdRp inh intensity
CC(=O)c1ccc(N2CCN(c3ncnc4c3c(-c3ccccc3)cn4-c3cccc(C)c3)CC2)cc1	105	100
CC1CCN(S(=O)(=O)c2ccc3c(c2)CCC(=O)N3CC(=O)Nc2cccc(C#N)c2)CC1	106	104

All compounds of this part, from the first entry:
SMILES	Polio RdRp inh	Polio RdRp inh intensity
CC(=O)c1ccc(N2CCN(c3ncnc4c3c(-c3ccccc3)cn4-c3cccc(C)c3)CC2)cc1	105	100
CC1CCN(S(=O)(=O)c2ccc3c(c2)CCC(=O)N3CC(=O)Nc2cccc(C#N)c2)CC1	106	104
CCCCN(CCCC)CCCNC(=O)Cn1cc2c(n1)-c1c(oc(C(=O)N3CCCC3)c1C)CC2	109	112
Cc1oc(-c2ccc(C(=O)Nc3cc(F)ccc3F)cc2)nc1COc1ccccc1	107	111
COc1cccc(CNC(=O)Nc2cc(C(=O)NCc3cccc(F)c3)ccc2N2CCCC2)c1	103	106
Cc1ccc(-n2c(=O)c3cccnc3n2CC(=O)Nc2cc(C)cc(C)c2)cc1	96	104
Cc1cc2oc(C(=O)NCCc3ccc(S(N)(=O)=O)cc3)cc(=O)c2cc1C	110	110
CCOc1ccc(CNC(=O)c2ccc3c(c2)c(C)c(C)n3C)cc1	107	112
COc1cccc(CNC(=O)C(=O)NCC(c2cccs2)S(=O)(=O)c2ccccc2)c1 (configuration not stated)	110	96
O=C(Nc1ccc(Oc2ccccc2)cc1)C1CCN(S(=O)(=O)c2ccccc2)CC1	107	112
CCn1c(C(=O)N2CCC(C(=O)NCCc3ccccc3)CC2)cc2sccc21	104	110
COC(=O)c1c(C)sc(-c2c(-c3ccc(OC)c(F)c3)[nH]c3c2c(=O)n(C)c(=O)n3C)c1O	114	109
COc1ccc(-c2noc(CNS(=O)(=O)c3ccc(Br)cc3)n2)cc1OC	111	110
Cc1ccc(NC(=O)N2CCC(CN3CCC(C)CC3)CC2)cc1F	107	109
Clc1ccccc1Cc1cn2cc(-c3ccccc3)nc2s1	104	105
Cc1ccc(-c2nn3c(=O)cc(CN4CCN(C(=O)c5ccc(C(C)(C)C)cc5)CC4)nc3s2)cc1	106	105
Cc1oc(-c2ccc(C(=O)NCc3ccc(Cl)cc3)cc2)nc1CS(=O)(=O)c1ccccc1	106	111
Cc1cc(C)c2c(NC(=O)c3ccccc3)c(C(=O)Nc3ccc(F)cc3)sc2n1	103	101
COc1ccc(-n2c(/C=C/c3cccc4ccccc34)nc3ccccc3c2=O)cc1Cl	112	110
Cc1cccc(CCNC(=O)CCS(=O)(=O)c2cc3c(cc2C)NC(=O)CO3)c1	109	112

Taken from above.
`Cc1cc(C)c2c(NC(=O)c3ccccc3)c(C(=O)Nc3ccc(F)cc3)sc2n1` in Polio RdRp inh = 103
`Cc1cccc(CCNC(=O)CCS(=O)(=O)c2cc3c(cc2C)NC(=O)CO3)c1` in Polio RdRp inh = 109
`Cc1oc(-c2ccc(C(=O)NCc3ccc(Cl)cc3)cc2)nc1CS(=O)(=O)c1ccccc1` in Polio RdRp inh = 106
`COc1ccc(-c2noc(CNS(=O)(=O)c3ccc(Br)cc3)n2)cc1OC` in Polio RdRp inh intensity = 110
`Clc1ccccc1Cc1cn2cc(-c3ccccc3)nc2s1` in Polio RdRp inh = 104

Other compounds:
SMILES	Polio RdRp inh	Polio RdRp inh intensity
CCOc1ccc2oc(=O)cc(CN3CCN(C(=O)c4cccc(Cl)c4)CC3)c2c1	109	111
CC(C)n1c(=O)c2oc3ccccc3c2n(CC(=O)Nc2ccccc2Cl)c1=O	107	106
Cc1ccc(NC(=O)Cn2ccn(-c3ccc(F)c(F)c3)c(=O)c2=O)cc1C	108	118
COc1ccc(CN(Cc2ccco2)C(=O)c2ccccc2F)cc1	111	115
Cc1nn2c(=O)cc(COC(=O)c3cccs3)nc2s1	104	109
CC(=O)N1CCc2cc(Br)cc(S(=O)(=O)CCC(=O)N3CCN(c4ccc(F)cc4)CC3)c21	101	105
CC(C)NC(=O)CC(=O)Nc1ccc2nc3n(c(=O)c2c1)CCCCC3	107	108
O=C(Cn1c(=O)n(-c2ccc(F)cc2)c(=O)c2sccc21)Nc1cccc(C(F)(F)F)c1	105	107
Cc1ccc(C)c(N2CCN(CCCNC(=O)Cn3c(-c4cccs4)cc4ccccc43)CC2)c1	112	108
Cc1cccc(OCC(=O)N(Cc2cccs2)c2ccc(Cl)cc2)c1C	106	111

Some of the entries so far, comma-delimited.
SMILES,Polio RdRp inh,Polio RdRp inh intensity
CCOc1ccc2oc(=O)cc(CN3CCN(C(=O)c4cccc(Cl)c4)CC3)c2c1,109,111
CC(C)n1c(=O)c2oc3ccccc3c2n(CC(=O)Nc2ccccc2Cl)c1=O,107,106
Cc1ccc(NC(=O)Cn2ccn(-c3ccc(F)c(F)c3)c(=O)c2=O)cc1C,108,118

(continued)
SMILES	Polio RdRp inh	Polio RdRp inh intensity
COc1ccc(-c2nc(CNC(=O)Nc3ccccc3)c(C)o2)c(OC)c1	109	103
Cc1ccc(CNC(=O)c2cc(S(=O)(=O)N3CCCC(C)C3)cn2C)cc1 (configuration not stated)	113	101
CCc1ccc(C2N3CC4(C)CN2CC(c2ccccc2)(C3)C4=O)cc1 (configuration not stated)	109	100
COC(=O)CN1C(C(=O)c2ccccc2)=C(OC(=O)c2ccccc2)c2ccccc2S1(=O)=O	106	108
NC(=O)c1nc(Nc2ccccc2)sc1NC(=O)c1c(F)cccc1F	98	108
CC(=O)Nc1c(C)nn(-c2ccccc2)c1N1CCC(C(=O)Nc2cc(F)ccc2F)CC1	112	116
Cc1cc(C)cc(Nc2cc(-c3ccccc3)nc(C)n2)c1	108	106
Nc1nonc1-c1nc2ccccc2n1Cc1c(Cl)cccc1Cl	116	128
CCOC(=O)c1cc2c(=O)n3ccccc3nc2n(Cc2ccco2)c1=NC(=O)c1ccc(F)cc1	98	105
COc1ccc(N(CC(=O)NCCc2ccccc2)S(=O)(=O)c2c(C)nn(C)c2C)cc1	106	107
CCN(CC)C(=O)c1sc2c(c1C)c(=O)n(Cc1ccccc1)c(=O)n2Cc1cc(C)ccc1C	112	114
CCOC(=O)c1cc2c(=O)n3ccccc3nc2n(C(C)C)c1=NC(=O)C(C)(C)Oc1ccc(Cl)cc1	106	108
N#Cc1ccccc1Cn1c(=O)n(CCCC(=O)NCc2ccc3c(c2)OCO3)c(=O)c2sccc21	109	108
O=C(NCc1ccccc1Cl)NCc1noc2ccccc12	108	112
CCc1ccccc1NC(=O)Cn1nc(N2CCN(c3ccccc3OC)CC2)ccc1=O	106	111
COC(=O)c1c(NC(=O)c2nc(SCc3ccc(F)cc3)ncc2Cl)sc2c1CCCC2	110	113
COCCCNC(=O)CN1C(=O)COc2ccc(S(=O)(=O)N3CCOCC3)cc21	102	97
COC(=O)c1cnc(N2CCN(c3ccc(OC)cc3)CC2)c2ccccc12	106	113
Cc1cccc(NC(=O)C2CCCN(S(=O)(=O)c3c(C)n[nH]c3C)C2)c1 (configuration not stated)	103	99
Cc1ccccc1NC(=O)Cn1nc(-c2ccc(F)cc2)c2cnc3ccccc3c21	109	115

Single records (already shown):
`COC(=O)c1c(NC(=O)c2nc(SCc3ccc(F)cc3)ncc2Cl)sc2c1CCCC2` as listed: Polio RdRp inh: 110; Polio RdRp inh intensity: 113
`N#Cc1ccccc1Cn1c(=O)n(CCCC(=O)NCc2ccc3c(c2)OCO3)c(=O)c2sccc21` as listed: Polio RdRp inh: 109; Polio RdRp inh intensity: 108

(cont.)
SMILES	Polio RdRp inh	Polio RdRp inh intensity
CNC(=O)C1CCC(Cn2c(=O)c3sccc3n(CC(=O)N3CCC(C)CC3)c2=O)CC1 (configuration not stated)	105	108
Nc1c(C(=O)Nc2ccc(Br)cc2F)sc2nc3c(cc12)N1CCC3CC1	104	107
O=C(CN1C(=O)C2(SCC(=O)N2c2cccc(Cl)c2)c2ccccc21)NCc1ccccc1 (configuration not stated)	111	110
COc1ccc(Nc2ncc3c(n2)CCN(Cc2ccccc2C)C3)c(OC)c1	108	108
Cc1cc(C)nc(NC(=NCCc2c[nH]c3ccc(Cl)cc23)NC(=O)c2ccccc2C)n1	105	105
CC(C)c1cnc2c(c1SCc1cccc(F)c1)c(=O)n(C)c(=O)n2C	110	110
COc1ccc(NC(=O)C(Cc2ccccc2)NS(=O)(=O)c2ccc3c(c2)oc(=O)n3C)c(OC)c1 (configuration not stated)	103	100
CCc1ccccc1NC(=O)CN1C(=O)CCSc2ccc(S(=O)(=O)N3CCCC3)cc21	102	93
CCOC(=O)CNC(=O)N1CCc2cc(S(=O)(=O)N3CCC(C)CC3)ccc21	105	108
CCc1ccccc1NC(=O)Cn1c(=O)ccc2cc(S(=O)(=O)N3CCC(C)CC3)ccc21	114	116
O=C(NC1CCCCC1)c1c[nH]c2ccc(S(=O)(=O)Nc3ccccc3F)cc2c1=O	111	105
Cc1c(C(=O)NCc2ccccc2Cl)cccc1-n1cnc2cccnc21	113	114
COC(=O)c1cc2oc(C)cc2n1Cc1cccc(Cl)c1	111	113
O=C(CN1CCN(Cc2ccc(F)cc2)C1=O)NCc1ccc(F)cc1	108	112
O=C(Nc1ccc(F)c(Cl)c1)N1CCC(CN2CCOCC2)CC1	107	115
CCN(c1ccccc1C)S(=O)(=O)c1ccc(N2CCCCS2(=O)=O)cc1	103	101
Cc1cc(-c2nc3ncccc3o2)ccc1NC(=O)COc1ccc(C(C)(C)C)cc1	102	102
CCC(CC)C(=O)N1CCc2cc(OC)c(OC)cc2C1COc1ccc(F)cc1 (configuration not stated)	101	102
COCCN(CCOC)S(=O)(=O)c1ccc(C(=O)Nc2sc3c(c2C(=O)OC)CCN(C)C3)cc1	98	73
CCCCNC(=O)CSc1nc2nc(C)c(Cc3ccccc3C)c(C)n2n1	103	104
CCn1c(=O)c2c(nc3n2CCN3c2ccc(OC)cc2)n(C)c1=O	109	113
Cc1oc(-c2ccc(C(=O)NCc3ccc(N(C)C)cc3)cc2)nc1COc1ccccc1	100	98
COc1ccc(OC)c(C2CC(=O)Nc3ccc4ccccc4c32)c1 (configuration not stated)	108	108
Cc1cc(O)c(C(c2ccccc2)N2CCN(c3ccccc3F)CC2)c(=O)n1Cc1ccco1 (configuration not stated)	105	105
NS(=O)(=O)c1ccc(CCNC(=O)c2nc(SCc3ccccc3F)ncc2Cl)cc1	104	110
O=C(NCC(c1cccnc1)N1CCOCC1)C(=O)Nc1ccc(Cl)cc1 (configuration not stated)	107	108
COc1ccc(CNC(=O)c2cccc(N3CCCS3(=O)=O)c2)cc1OC	109	113
CCOC(=O)Cc1c(C(=O)OCC)nnc2c(-c3ccccc3)c(C)nn12	106	105
CC(C)CN(CC(C)C)C(=O)C1CCCN(S(=O)(=O)c2ccc3c(c2)oc(=O)n3C)C1 (configuration not stated)	113	113
CC(=O)N1CCc2cc(S(=O)(=O)NC(Cc3ccccc3)C(=O)NCc3ccccc3)ccc21 (configuration not stated)	104	104
COc1ccc(CCN2C(=O)N(c3ccc(F)cc3)C(=O)C2CC(=O)Nc2ccccc2)cc1OC (configuration not stated)	108	110
O=C(CCn1c(=O)c2cccn2c2cccnc21)NCc1ccccc1Cl	107	111
Cc1ccc(C(Nc2ccccn2)c2ccc3cccnc3c2O)cc1 (configuration not stated)	113	155
Cc1cccc(CNS(=O)(=O)c2csc(C(N)=O)c2)c1	109	114
Cc1cccc2sc(N(Cc3cccnc3)C(=O)CCc3ccccc3)nc12	100	98
CCCNC(=O)CN1CCN(c2ccc(NC(=O)c3ccc(OC)cc3)cc2C(=O)O)CC1	108	114
O=C(Nc1sc2c(c1C(=O)NCc1cccnc1)CCCC2)c1cc(=O)c2ccccc2o1	111	116
COc1ccc(-c2nc(CNS(=O)(=O)c3ccc(C)cc3)cs2)cc1	106	104
CCOc1ccc(-n2c(SCC(=O)Nc3cc(C)on3)nc3c([nH]c4ccccc43)c2=O)cc1	103	109
COc1ccc(N2CCN(CCCNC(=O)Cn3c(-c4cccs4)cc4ccccc43)CC2)cc1	110	113
O=C(CC(NCc1cccnc1)C(=O)O)Nc1ccc(O)cc1 (configuration not stated)	106	105
Cc1ccc(CNC(=O)c2ccc(CSc3nc4ccncc4n3Cc3ccc(C)cc3)cc2)cc1	108	106
CCC(C)NC(=O)c1sc2nc3n(c(=O)c2c1C)CCC3 (configuration not stated)	103	107
COc1ccc(NC(=O)c2ccco2)cc1NC(=O)COc1cc(C)ccc1C(C)C	111	113
COc1ccccc1NC(=O)c1oc2ccccc2c1NC(=O)C1CCCCC1	107	112
COC(=O)c1cnc(N2CCN(c3ccc(F)cc3)CC2)c2ccccc12	102	109
COc1ccc(OC(C)C(=O)NCc2nc(-c3ccc(Cl)cc3)no2)cc1 (configuration not stated)	113	114
CCOc1ccc(CCNC(=O)CSc2nc3ccccc3nc2Cc2ccc(C)cc2)cc1OCC	102	109
CCOC(=O)c1cc(-c2ccccc2)n(-c2cccc(C(=O)Nc3cccc(F)c3)c2)c1C	102	91
O=c1ccc(-c2ccccc2)nn1Cc1c(F)cccc1Cl	112	108

(more compounds)
SMILES	Polio RdRp inh	Polio RdRp inh intensity
COc1ccccc1CCNc1ncnc2c1nnn2C	112	106
Cc1cc(C)cc(OCC(=O)Nc2c(C(=O)c3ccccc3)oc3ccccc23)c1	110	114
CCOC(=O)CSc1nc2ccc(NC(=O)COc3ccccc3)cc2s1	112	114
CCOC(=O)N1CCc2c(sc(NCc3ccc(OC)c(OC)c3OC)c2C(=O)Nc2ccc(OC)cc2OC)C1	101	99
O=C(NC1CCCCC1)c1ccc(CSc2nc3ccncc3n2Cc2cccc(F)c2)cc1	112	97
Cc1cc(C)c(NC(=O)c2sc3nc(C)cc(C)c3c2NC(=O)c2ccccc2)c(C)c1	100	104
CCOc1ccc(-c2cc(C(=O)N3CCN(c4ccc(C)cc4)C(C)C3)c3ccccc3n2)cc1 (configuration not stated)	106	105
COc1ccccc1-c1nc(-c2ccc(Br)o2)no1	100	97
COc1ccc(CNC(=O)c2sc3nc4n(c(=O)c3c2C)CCC4)cc1	103	112
O=C(NCC(c1ccc2c(c1)OCO2)N1CCOCC1)c1ccc(F)cc1 (configuration not stated)	104	107
CC(C)c1ccc(NC(=O)Cn2c(=O)n(CCc3ccccc3)c(=O)c3ccccc32)cc1	108	109
O=C(NCC(c1cccnc1)N1CCc2ccccc2C1)C(=O)Nc1ccccc1F (configuration not stated)	113	109
CCc1nnc(SCC(=O)Nc2ccc(OC)c(OC)c2)c2cc3occc3n12	105	105
